Compound activity (PubChem)
Cruzain noTriton – qHTS Assay for Promiscuous and Specific Inhibitors of Cruzain (without detergent); Cruzipain (Trypanosoma cruzi), P25779; purified cruzain, Z-FR-AMC fluorescence, no detergent; Potency, µM, without a hit: max response, negative = inhibition, usual class: inhibitors; hit rate 2.3% among 200,000; AID 1476, 2009;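 note: plate controls were enzyme without inhibitor for no effect and buffer without enzyme for full effect; nearly all actives have a fitted effect of over 40% in size; top concentration of the series not given in the record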
Target sequence (P25779 123-467 limits assumed): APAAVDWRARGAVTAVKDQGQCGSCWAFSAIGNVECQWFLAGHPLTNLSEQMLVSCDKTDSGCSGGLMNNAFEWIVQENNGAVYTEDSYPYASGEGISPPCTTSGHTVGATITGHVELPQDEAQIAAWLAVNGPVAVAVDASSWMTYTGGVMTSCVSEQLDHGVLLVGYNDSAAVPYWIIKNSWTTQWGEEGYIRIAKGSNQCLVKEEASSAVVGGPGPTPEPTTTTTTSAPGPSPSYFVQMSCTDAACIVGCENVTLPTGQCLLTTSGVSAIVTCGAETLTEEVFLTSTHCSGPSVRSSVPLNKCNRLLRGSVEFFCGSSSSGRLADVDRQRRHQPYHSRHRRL
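Purified cruzain at 1.5 nM, pre-incubated 15 min with compound at room temperature in 100 mM sodium acetate pH 5.5, 5 mM DTT, 0.00005% Triton X-100. Reaction started with 2 uM Z-FR-AMC; AMC fluorescence increase over 60 s gives rate.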
Cruzain Triton – qHTS Assay for Promiscuous and Specific Inhibitors of Cruzain (with detergent) | Cruzipain (Trypanosoma cruzi), P25779 | purified cruzain, Z-FR-AMC fluorescence, 0.01% Triton | Potency, µM, for inactives: max response, negative = inhibition, actives largely listed as inhibitors | hit rate 0.43% among 200,000 | AID 1478, 2009;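 note: plate controls were neutral wells for no effect and buffer without enzyme for full effect; nearly all actives have a fitted effect of over 40% in size; top concentration of the series not given in the record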
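Purified cruzain (1.5 nM final) was preincubated with compounds for 15 min at room temperature in 100 mM sodium acetate pH 5.5, 5 mM DTT, 0.01% Triton X-100. Reaction started with 2 uM Z-FR-AMC; AMC fluorescence change over 60 s gave activity.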
SARS PLpro yeast – qHTS of Yeast-based Assay for SARS-CoV PLP; S. cerevisiae expressing SARS-CoV PLpro, growth rescue; control for the full effect not named in the record; Potency, µM (doses to about 32.9 µM), without a hit: at the top dose activity, positive = growth rescue; hit rate 0.19% among 330,000; active means well fitted rising curve with a large enough effect; inconclusive means small, poorly fitted or top-dose-only effect; inactive means no such curve, though single readings can be large or run the other way; note: 0% is about no effect; nearly all actives have a fitted effect of over 55% in size; growth read by luminescence after 48 h
NS1 function inh – qHTS Assay for Inhibitors of Influenza NS1 Protein Function | S. cerevisiae slowed by influenza A NS1, growth recovery by OD600 | Potency, µM (doses to about 46.1 µM), for the others: at the top dose activity, positive = more growth | hit rate 0.4% among 270,000; active means well fitted rising curve with a large enough effect; inconclusive means small, poorly fitted or top-dose-only effect; inactive means no such curve, though single readings can be large or run the other way; note: nearly all actives have a fitted effect of over 50% in size
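Compounds were scored for reversing the slow growth caused by influenza A NS1 in S. cerevisiae, measured by optical density at 600 nm. Assay medium contained 2% galactose at pH 6.0; NS1-free yeast of the same strain were the positive control.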
RE007 growth inh – qHTS Assay for Inhibitors of the HIV-1 protein Vpr; S. pombe RE007 Vpr strain, BacTiter-Glo ATP luminescence, 24 h; control for the full effect not named in the record; Potency, µM (top dose mostly 92.2 µM), for the others: at the highest dose activity change, negative = less growth; hit rate 0.21% among 360,000; active = well fitted falling curve with a large enough effect; inconclusive = small, poorly fitted or top-dose-only effect; inactive = no such curve, though single readings can be large or run the other way;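 note: % is set by controls: 0 for no effect and ±100 for the full control effect; nearly all actives have a fitted effect of over 50% in size; the assay follows cell death caused by Vpr and the record does not say whether a fall means rescue or toxicity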
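Fission yeast RE007 carrying one integrated HIV-1 vpr copy, seeded at OD 0.01 in PMG+AL medium with 23 nL pinned compound. Grown 24 h at 30 degrees; viability read by BacTiter-Glo luminescence after 5 min.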
MARV entry inh – qHTS for inhibitors of binding or entry into cells for Marburg Virus | hit rate 1.8% among 300,000 | Marburg virus pseudotyped entry inhibition, cell reporter; control for the full effect not named in the record; about a third of the inactives were read at about 46 µM | Potency, µM (highest dose often 37.8 µM), for the others: at the highest dose activity change, negative = inhibition, usual class: inhibitors; active = well fitted inhibition curve with a large enough effect; inconclusive = small, poorly fitted or top-dose-only effect, or effect the other way; inactive = flat fitted curve, though single readings scatter; tested in HEK293 cells; about a fifth of its hits are not listed in these tables; note: % is set by controls: 0 for no effect and ±100 for the full control effect; luciferase read-out
Lassa entry inh – qHTS for Inhibitors of binding or entry into cells for Lassa Virus; Lassa virus pseudotype entry inhibition, cell reporter; control for the full effect not named in the record; Potency, µM (top dose mostly 37.9 µM), inactives show at the highest dose activity change, negative = inhibition, most hits filed as inhibitors; hit rate 1.2% among 300,000; active means well fitted inhibition curve with a large enough effect; inconclusive means small, poorly fitted or top-dose-only effect, or effect the other way; inactive means flat fitted curve, though single readings scatter; tested in HEK293 cells; note: % is set by controls: 0 for no effect and ±100 for the full control effect; nearly all actives have a fitted effect of over 50% in size; luciferase read-out
2A StopGo – High Throughput Screening for Foot and Mouth Disease Virus Antivirals; human cells with a luciferase reporter of 2A StopGo recoding; control for the full effect not named in the record; Potency, µM (doses to about 57.9 µM), for the others: at the highest dose signal change, negative = less light; hit rate 1.2% among 410,000; AID 1159524, 2015; active = well fitted falling curve with a large enough effect; inconclusive = small, poorly fitted or top-dose-only effect; inactive = no such curve, though single readings can be large or run the other way; tested in HEK293T cells; note: % is set by controls: 0 for no effect and ±100 for the full control effect; nearly all actives have a fitted effect of over 45% in size; luciferase light after 4 h
Active calls of the source: *; ? = inconclusive; / = not tested or not shown; & = joins results of further samples; [ ] = remark or other dose. Unless noted, calls come from the whole dose curve; as a rule, active = well fitted curve in the direction sought with a large enough effect; inconclusive = small, poorly fitted or top-dose-only effect, or another doubt; inactive = no such curve, though single readings can be large; an effect the other way counts as inactive or inconclusive. Potency is the fitted concentration of half-maximal effect.

SMILES	Cruzain noTriton	Cruzain Triton	SARS PLpro yeast	NS1 function inh	RE007 growth inh	MARV entry inh	Lassa entry inh	2A StopGo
COC(=O)c1cnc2c(c1C(=O)OC)c(=O)n(C)c(=O)n2C	8%	-1.6%	3%	9%	3%	11%	5%	-14%
CC1CC(C)CN(CC(=O)N2CCCc3c2c(=O)oc2ccc(OCc4ccccc4)cc32)C1 (configuration not stated)	-10%	-1.8%	4%	-3%	6%	10µM*	?	?
CN(C)CCCNc1oc(/C=C/c2ccc(F)cc2)nc1C#N	25µM*	?	/	/	/	?	?	0%
O=c1c2ccccc2nnn1CSc1ccc2c(c1)OCCO2	-5%	-1.3%	6%	-48%	-21%	11%	?	-17%
Cc1cccc(-n2c(O)c(/C=N/NC(=O)c3ccncc3)c(=O)[nH]c2=O)c1	/	/	1%	-1%	4%	2%[14.2 µM]	17%	-9%
COC(=O)C1=C(C)NC(=O)NC1c1ccc2ccccc2c1 (configuration not stated)	/	/	18%	5%	-14%	-14%	?	-16%
CC(=O)Nc1ccc(S(=O)(=O)NNC(=O)NC23CC4CC(CC(C4)C2)C3)cc1	/	/	/	14%	24%	6%	-26%	-22%
Cc1nc(SCc2cccc(F)c2)[nH]c(=O)c1C#N	-4%	-2.5%	1%	0%	-8%	-6%	1%	13%
Nc1nnc(SCc2cn3cc(Cl)ccc3n2)s1	/	/	0%	0%	5%	?	-19%[46.1 µM]	19%
CN(CC(=O)Nc1ccc(F)cc1)C(=O)CN1C(=O)c2cccc([N+](=O)[O-])c2C1=O	/	/	-9%	/	-6%	-8%	8%	?
COc1ccc(Cl)cc1NC(=O)CN1c2ccccc2CC1C (configuration not stated)	/	/	-3%	/	15%	?	-17%	-14%
COc1cc(/C=C2\SC(=Nc3ccccc3)NC2=O)cc(Cl)c1O	/	/	-1%	1%	-2%	?	?	-13%
Cc1ccc2nc(-c3ccncc3)cc(C(=O)N3CCC4(CC3)OCCO4)c2c1	6%	-1.5%	2%	-6%	13%	?	8%	0%
Cc1ccc(C(CC(=O)c2ccco2)SCCO)cc1 (configuration not stated)	-1%	-7.5%	-5%	-5%	?	-15%	?	10%
COc1ccc(C2NC(=S)NC(C)=C2C(=O)Nc2ccccn2)cc1OC (configuration not stated)	-12%	-4.7%	5%	3%	-16%	?	4%	-6%
N#CCSc1nnc(-c2cnccn2)n1Cc1ccccc1	-7%	-2.9%	25%	5%[9.22 µM]	-2%	?	7%	15%
Cc1ccc(OCc2cc(=O)n3c4c(sc3n2)CCCC4)cc1C	2%	1.2%	/	/	/	5%[46.1 µM]	21%[46.1 µM]	43%[activator]
COC(=O)c1cc(COc2ccc3oc(C)c(C(=O)OC(C)C)c3c2)c(C)o1	15%	-1.9%	-2%	0%	-17%	?	?	0%
CCOCCCNC(=O)C1c2ccccc2Oc2ccccc21	/	/	-3%	5%	0%	?	-5%	-6%
COC(=O)C1=C(C)Nc2nc3ccccc3n2C1c1cc(OC)c(OC)c(OC)c1 (configuration not stated)	/	/	0%	3%	-2%	?	?	-6%
CS(=O)(=O)c1ccc(Cl)c(NC(=O)C2CC(=O)N(Cc3ccco3)C2)c1 (configuration not stated)	/	/	0%	/	6%	-2%[46.1 µM]	-3%	-5%
Cc1ccc(S(=O)(=O)NCCOC(=O)Nc2sc(=S)n(C)c2C)cc1	-6%	-0.2%	-11%	7%	-1%	2%	-2%	/
CCOC(=O)c1noc2ncnc(Nc3cccc(C(F)(F)F)c3)c12	-8%	-2.5%	/	/	/	/	1%[46.1 µM]	0%
Nc1c(/C=C2\C=Nc3ccccc32)c(=O)nc2sc(CC(=O)N3CCOCC3)nn12	/	/	5%	15%	7%	/	/	-2%
CCSc1nc(-c2cccs2)nc2ccccc12	/	/	-2%	/	-16%	-8%[46.1 µM]	13%	?

New compounds follow:
SMILES	Cruzain noTriton	Cruzain Triton	SARS PLpro yeast	NS1 function inh	RE007 growth inh	MARV entry inh	Lassa entry inh	2A StopGo
CCC(CC)C(=O)Nc1cc(C)c2c(=O)oc3ccccc3c2n1	-10%	-2.4%	-12%	1%	6%	/	/	?
Cc1ccc(S(=O)(=O)N(C)Cc2ccc(C(=O)NN=C3C4CC5CC(C4)CC3C5)cc2)cc1	12%	-2.1%	14%	?	8%	5%	16%	-13%
Cc1nccn1CCCNCc1c(C(=O)N2CCCCCCC2)nc2ccc(Cl)cn12	/	/	0%	-2%	-8%	-21%[46.1 µM]	18%	-7%
CCOc1cc(/C=C\c2nc(O)c([N+](=O)[O-])c(=O)[nH]2)ccc1OC(C)C	/	/	2%	-2%	-1%	0%[46.1 µM]	-3%[46.1 µM]	-2%
COc1ccc(-c2nc3ccc(N4CCN(C)CC4)cc3c(=O)[nH]2)cc1	/	/	0%	-2%	-2%	/	7%	66%[activator]
CCN(Cc1ccccc1)c1ccccc1	-3%	0.7%	/	/	-1%	/	/	-18%
Cc1ccc(S(=O)(=O)N2CCC(=O)N(CCO)CC2)cc1	-1%	1.2%	0%	13%	-1%	17%	5%	0%
COc1ccc(C(=O)Nn2c(CC(C)C)nc3cc(OC)c(OC)cc3c2=O)c(OC)c1	/	/	2%	11%	24%	/	/	-20%
CCOC(=O)c1c(C)[nH]c(C)c1S(=O)(=O)N(C)CC(=O)Nc1ccccc1C	/	/	-5%	12%	-24%	/	/	34%[activator]
CNC(=O)COC(=O)c1cc(F)c(F)cc1Cl	-12%	4.1%	1%	-2%	-13%	0%[46.1 µM]	1%	-8%
CCOC(=O)C1CCN(C(=O)C(C)Oc2ccc(Br)cc2)CC1 (configuration not stated)	/	/	0%	-8%	3%	-25%[46.1 µM]	?	?
COCCN(C(=S)Nc1c(C)cccc1C)C(C)c1cccnc1 (configuration not stated)	3%	-2.1%	-33%	-8%	2%	-19%	?	-8%
CCOc1ccccc1/C=N/Nc1nc2c(N)ncnc2n1[C@H]1O[C@@H](CO)[C@H](O)[C@@H]1O	/	/	-2%	4%	1%	/	/	6%
Cc1sc(NC(=O)C2=COCCO2)nc1-c1ccc(Br)cc1	/	/	1%	/	?	10%	30%	0%
O=C(Cc1ccc(Cl)cc1)NCC(=O)N1CCCCCC1	/	/	-6%	-9%	-9%	8%[46.1 µM]	18%[46.1 µM]	-10%
COc1ccc(-c2cn(-c3ccc(OC)cc3)c(=S)[nH]2)cc1	7%	-10%	29%	25%	-12%	0%	5%	49%[activator]
COc1ccc(F)cc1S(=O)(=O)Nc1cccc(-c2ccc(N3CCCCCC3)nn2)c1	12%	-5.8%	/	/	/	/	19%[46.1 µM]	39%[activator]
OCCN1CCN(c2ncnc3c2c(-c2ccccc2)cn3-c2ccc(Br)cc2)CC1	/	/	-5%	/	2%	?	?	-23%
Cc1ccc(S(=O)(=O)N(CC(=O)Nc2cccnc2)c2cccc(Br)c2)cc1	/	/	-7%	-18%	6%	/	/	-14%
O=C(OCc1nc2ccccc2[n+]([O-])c1C(=O)c1ccccc1)c1cccs1	-20%	-3.9%	3%	18%	-1%	3%	-2%	-10%
CC(C)(C)C(=O)Cn1c(NCCO)nc2ccccc21	1%	-0.5%	-6%	-3%	9%	8%	7%	8%
CC(C)(C)OC(=O)N1CCC(c2c(C(=O)NCc3ccccc3)cnn2-c2ccc(F)cc2)CC1	15%	-7.6%	/	/	/	/	?	-13%
COc1cc(C2SCC(=O)N2CCc2ccc(OC)c(OC)c2)ccc1O (configuration not stated)	/	/	0%	-3%	21%	2%[46.1 µM]	-21%	44%[activator]
NC(=O)C1CCN(c2ncnc3c2cnn3-c2cccc(Cl)c2)CC1	2%	0.8%	/	/	/	/	28%[46.1 µM]	33%[activator]
O=C(c1ccccc1)c1ccc(OCCOCCN2CCN(Cc3ccccc3)CC2)cc1	/	/	-1%	-6%	-21%	?	-2%	?

Continued.
SMILES	Cruzain noTriton	Cruzain Triton	SARS PLpro yeast	NS1 function inh	RE007 growth inh	MARV entry inh	Lassa entry inh	2A StopGo
Oc1ccc(/C=N/NC2=NCCCCC2)c(O)c1	0%	1.6%	-1%	-2%	1%	-11%	?	24%
CS(=O)(=O)Nc1ccc(Oc2ncccn2)cc1	/	/	-1%	1%	-11%	5%[46.1 µM]	10%[46.1 µM]	8%
COc1ccc(-c2nn(C)c(=O)c3ccccc23)cc1CNS(C)(=O)=O	-4%	1.8%	1%	-7%	3%	8%&8%	-5%	-17%
CCO[C@@H]1OC(C(=O)N2CCN(Cc3ccc4c(c3)OCO4)CC2)=C[C@H](c2ccc(C(F)(F)F)cc2)[C@H]1CCCO	/	/	0%	-11%	4%	/	/	?
CC1CCc2c(sc3nnn(Cc4cccc(C(=O)OC(C)C)c4)c(=O)c23)C1 (configuration not stated)	-4%	-0.7%	/	/	/	-2%[46.1 µM]	?	-17%
CN(C)/C=N/c1sccc1C(N)=O	-5%	-8.8%	6%	-7%	4%	-4%	-1%	9%
CCc1cc(=O)oc2c(CNCc3c(F)cccc3Cl)c(O)ccc12	/	/	0%	3%	-8%	8%[46.1 µM]	25%[46.1 µM]	11%
O=[N+]([O-])c1ccc(C(c2ccc([N+](=O)[O-])cc2)c2ccc([N+](=O)[O-])cc2)cc1	/	/	/	/	2%	?	?	-2%
Cc1ccc(OCC(=O)NNC(=O)CCc2ccccc2)c(Br)c1	/	/	-4%	-23%	-12%	13%[46.1 µM]	-10%	4%
O=C(NCc1ccccc1)c1cc(-c2cccc(Cl)c2)on1	?	-5.6%	/	/	/	?	17%[46.1 µM]	21%
COc1ccc(NC(=O)CN(C)S(=O)(=O)c2cccc3nsnc23)cc1	7%	-4.2%	-1%	/	10%	2%&2%[46.1 µM]	4%[46.1 µM]	3%&-9%
Cc1cccc(C(=O)O/N=C/c2c(N3CCOCC3)n(C)c3ccccc23)c1	1%	-4.4%	-27%	-213%	/	/	/	/
COCCN1CCc2c(C)nc3c(-c4ccc(OC)c(OC)c4)cnn3c21	1%	-12%	-1%	-9%	-8%	?	19%	32%[activator]
CC(=O)c1ccc(OCc2cc(C(=O)N(C)CCN3CCOCC3)no2)cc1	/	/	1%	-7%	-21%	/	/	7%
CCOC(=O)CCC(=O)Nc1ccc(S(=O)(=O)N2CCCCC2)cc1	/	/	0%	0%	-2%	-8%[46.1 µM]	-20%	10%
